Assay outcomes deposited in PubChem BioAssay by ICCB-Longwood Screening Facility, Harvard Medical School.
Anaer choline gr = growth inhibitors of anaerobic choline-fed gram-negatives, minimal medium, absorbance; Gram-negative bacterium anaerobic choline minimal medium; stronger effect = lower value; many inactives read as strong as hits in the columns shown; calls only; AID 1963822, 2024; 55,000 compounds, 0.2% hits;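 active means growth z-score on choline under -2 at 7 or 20 h with little or no fall on glycerol, limits in tiers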;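 further: stock transfer was 300 nL into about 50 µL; the organism is E. coli; final concentration not given here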
Anaer choline gr early = recorded beside Anaer choline gr, whose call it bears; z-score; measured here: choline growth z-score, timepoint 1;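 score of optical density at 7 h as mean of two plates; lower means less growth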
An asterisk follows results filed as active; i = inactive; & = joins results of further samples. The list is partial; count on the stated rates, not on these rows.

SMILES	Anaer choline gr	Anaer choline gr early
CCC1C(=O)OCC1Cc1cncn1C (centres undefined)	i	0.75&0.65&0.55
